Beta apoptosis: beta cell apoptosis inhibition. AID 435005. INS-1E cytokine-induced death, ATP luminescence, 48 h; percent of positive-control rescue, neutral wells zero. 300,000 compounds, 0.8% hits. protection from apoptosis, % (test concentration not listed);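 active = all replicates at 75% or more, or half of them and the mean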;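 also: 0% = cytokine-treated negative control wells and 100% = positive control rescue; higher means more ATP so stronger rescue from cytokine killing; wells of about 40 µL received 100 nL stock; the first replicate is given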
T cruzi inh: blocks replication of Trypanosoma cruzi. inhibition, % (no concentration beside the values). T. cruzi beta-gal in NIH3T3, luminescence, 90 h. 300,000 compounds, 1.4% hits;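 active = mean inhibition across valid replicates above about 55%, limit read from the data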;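 also: signal also drops with host cell toxicity which is not excluded here; 0% = plate median of DMSO wells and 100% = zero luminescence signal; higher percent means less beta-gal luminescence so fewer parasites; stock transfer was 50 nL into about 50 µL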
Bfl-1 A1 inh: inhibitors of the anti-apoptotic protein A1, read as caspase activation; MEF A1-2A-BIM cells, Caspase-Glo 3/7 luminescence, 3 h; percent of clofoctol response, vehicle zero; caspase activation, % (test concentration not listed); 330,000 compounds, 0.066% hits;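 active = over half of replicate activation scores above 10%, or exactly half above 10 with the replicate mean above 10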;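 also: wells of about 30 µL received 50 nL stock; many hits fall short of the cut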
ALR H2O2 inh: inhibitors of human sulfhydryl oxidase ALR | P55789 | purified ALR, DTT oxidation, H2O2 HRP-luminol luminescence | inhibition, % (test concentration not listed) | 290,000 compounds, 3.8% hits | AID 485317;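 active = mean and each replicate at 75% or more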;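 also: stock transfer was 7.5 nL into about 7.5 µL; 0% = neutral wells and 100% = wells with inactivated enzyme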
Calb FLC: affects C. albicans growth with fluconazole. growth inhibition, % (concentration not given with the values). 300,000 compounds, 0.57% hits. C. albicans CaCi-2 (fluconazole-resistant clinical isolate) + fluconazole, Alamar Blue growth, 48 h;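 active = most replicates above 75%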;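 also: all wells also contain fluconazole at 8 µg/ml as a sub-toxic cotreatment; 0% = median of DMSO wells and 100% = median of geldanamycin control wells; wells of about 8 µL received 7.5 nL stock; the first replicate is given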
B2AR ag: activates human beta-2 adrenergic receptor causing internalization; response, % (concentration not given with the values); 340,000 compounds, 0.43% hits; Am2.2-beta2AR cells, FAP receptor internalization, flow cytometry; reference of the scale not given here; AID 504454;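 active = response above a set limit, near 3 SD of response in nonfluorescent compounds, cut at about 42% in these data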;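 also: stock transfer was 100 nL into about 11 µL; a reference agonist was the positive control; negative values mostly stem from fluorescent compounds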
LANA-H2B inh: blocks KSHV LANA binding to histone H2A/H2B. Q9QR71. cell-free LANA-H2A/H2B peptide, fluorescence polarization. inhibition, % (concentration not given with the values). 320,000 compounds, 0.6% hits; in the data active = inhibition mostly above about 10%, no sharp cut-off; inactive = mostly below about 6.7%;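 also: stock transfer was 7.5 nL into about 10 µL; 0% = median of vehicle wells and 100% = median of positive control wells; one replicate is shown; the record names a cut of 25% in any replicate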
Target sequence (Q9QR71 whole entry, looked up): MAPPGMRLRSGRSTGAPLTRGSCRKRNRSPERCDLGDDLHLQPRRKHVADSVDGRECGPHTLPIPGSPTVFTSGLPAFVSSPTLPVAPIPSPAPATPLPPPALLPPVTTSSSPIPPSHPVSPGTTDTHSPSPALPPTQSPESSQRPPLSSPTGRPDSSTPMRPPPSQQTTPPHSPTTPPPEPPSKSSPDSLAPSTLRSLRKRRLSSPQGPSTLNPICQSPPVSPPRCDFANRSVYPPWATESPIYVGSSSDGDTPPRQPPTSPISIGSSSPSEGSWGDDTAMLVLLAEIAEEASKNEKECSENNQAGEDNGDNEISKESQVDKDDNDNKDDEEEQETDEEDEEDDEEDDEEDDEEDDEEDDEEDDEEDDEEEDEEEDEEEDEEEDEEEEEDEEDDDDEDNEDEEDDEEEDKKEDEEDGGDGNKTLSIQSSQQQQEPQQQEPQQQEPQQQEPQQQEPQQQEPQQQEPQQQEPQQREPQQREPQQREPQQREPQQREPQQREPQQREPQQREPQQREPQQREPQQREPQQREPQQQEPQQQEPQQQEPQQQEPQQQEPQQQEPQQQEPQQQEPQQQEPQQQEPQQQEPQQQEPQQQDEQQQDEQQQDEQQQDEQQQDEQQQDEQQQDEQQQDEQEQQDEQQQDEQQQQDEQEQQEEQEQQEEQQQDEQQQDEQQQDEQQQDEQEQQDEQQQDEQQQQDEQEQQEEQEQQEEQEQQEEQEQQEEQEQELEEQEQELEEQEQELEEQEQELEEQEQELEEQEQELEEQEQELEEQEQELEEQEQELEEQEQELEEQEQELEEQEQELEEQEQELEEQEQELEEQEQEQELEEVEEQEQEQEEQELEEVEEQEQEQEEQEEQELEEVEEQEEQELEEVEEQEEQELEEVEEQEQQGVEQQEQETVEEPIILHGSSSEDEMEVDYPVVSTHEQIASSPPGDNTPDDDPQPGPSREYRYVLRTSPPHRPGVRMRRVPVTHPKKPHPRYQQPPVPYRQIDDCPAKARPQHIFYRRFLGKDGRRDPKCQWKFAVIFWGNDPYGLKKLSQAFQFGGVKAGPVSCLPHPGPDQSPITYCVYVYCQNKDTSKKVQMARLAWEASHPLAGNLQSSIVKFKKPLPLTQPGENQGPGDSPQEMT
rRNA inh HTS: selective bacterial rRNA inhibition in E. coli | E. coli WT GFP vs humanized-ribosome RFP mutants, fluorescence, 24 h; hits give low values; DMSO median 0, no signal -100 | GFP signal change (wild-type ribosome), % (no concentration beside the values) | 350,000 compounds, 1.6% hits;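 active = significant combined selectivity score with lowered wild-type GFP, culture density cut under 30%, mutant RFP and density less affected; inactive = any of these conditions unmet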; also: one replicate is shown; some compounds called inactive have numbers as strong as hits
rRNA inh HTS OD600: further read-out of rRNA inh HTS, marked with its call; OD600 change, %; measured here: OD600 growth;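 optical density of the mix in the first replicate; 0 = DMSO median and -100 = no signal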
rRNA inh HTS RFP: further read-out of rRNA inh HTS, marked with its call; RFP signal change, %; measured here: RFP humanized mutant strains;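 first replicate; 0 = DMSO median and -100 = no signal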
Starred values were filed as active, the others as inactive; / = not tested or not shown. The list is partial; count on the stated rates, not on these rows.

Value order: Beta apoptosis	T cruzi inh	Bfl-1 A1 inh	ALR H2O2 inh	Calb FLC	B2AR ag	LANA-H2B inh	rRNA inh HTS	rRNA inh HTS OD600	rRNA inh HTS RFP
CC(C)C[C@H](NC(=O)c1nc[nH]c1C(=O)N1CCc2ccccc2C1)C(=O)OCc1ccccc1
→ 1	-15	-1.6	-2	9	-1	0.9	-8	-12	14
Cc1ccccc1S(=O)(=O)/N=C(/Nc1c(C)n(C)n(-c2ccccc2)c1=O)c1ccccc1
→ -2	6	0.6	-3	-13	-3	-3.1	5	11	-1.1
O=C(CCCSc1ccccc1)Nc1nc(-c2ccco2)c(-c2ccco2)s1
→ 4	7	0.4	0	-1	4	/	-1	0	14
C[C@H](NC(=O)[C@@H]1CSC2c3ccccc3C(=O)N21)C(=O)NC1CCCC1 (stereo partly specified)
→ -6	1	-0.2	1	11	1	1.6	7	2	-3.5
O=C(NCc1ccc(F)cc1)C1CCN(S(=O)(=O)c2ccc(Br)s2)CC1
→ -3	22	0.4	-7	6	-15	4.2	1	15	-1.5
CCOC(=O)c1cc(NC(=O)C2C3C=CC(O3)C2C(=O)O)cc(C(=O)OCC)c1 (stereo unspecified)
→ -2	-1	1.1	-1	-14	-2	4.4	21	11	1.0
O=C(N=C1c2ccccc2CN1c1ccc(F)cc1)c1ccc(Cl)nc1
→ -9	-2	-2.0	-9	2	-2	-1.7	/	/	/
CC1CN(C(=O)CCNS(=O)(=O)c2ccc(Br)cc2)CC(C)O1 (stereo unspecified)
→ 2	-13	0.1	-4	2	-1	3.2	7	11	1.7
[S-]C(=Nc1ccc(Cl)cc1)N[n+]1ccccc1
→ -9	-1	-0.6	6	-21	-8	11	/	/	/
CC(C)Oc1cccc(C(=O)C2CCCN(C(=O)CCc3cnn(C)c3)C2)c1 (stereo unspecified)
→ 2	4	-1.1	-12	6	-3	1.3	-4	0	3.9

(listing goes on)
Value order: Beta apoptosis	T cruzi inh	Bfl-1 A1 inh	ALR H2O2 inh	Calb FLC	B2AR ag	LANA-H2B inh	rRNA inh HTS	rRNA inh HTS OD600	rRNA inh HTS RFP
Cc1cc(NC(=O)c2ccco2)sc1C
→ 17	/	-14	98*	/	-4	-11	6	-4	-2.2
O=C(CCn1nc(-c2ccc(Cl)cc2)ccc1=O)NCCCN1CCCCCC1
→ 1	2	0.0	-27	4	1	2.9	0	9	19
C/C(=N/NC(=O)C1COc2ccccc2O1)c1ccc(Br)s1 (stereo unspecified)
→ /	1	0.7	/	-5	-8	-0.4	4	10	-1.6
CC(c1ccccc1)N(C)CC(=O)NC(=O)NCCC1=CCCCC1 (stereo unspecified)
→ -11	/	1.0	-3	/	-3	1.2	-47	-72	-11
C/C(=N\NC(=S)NC(C)C)c1ccc(C(C)(C)C)cc1
→ 1	34	0.0	27	6	10	0.2	5	6	-0.2
C[N+](C)(CCOc1ccccc1)Cc1ccccc1 (tested in a mixture with another compound)
→ -7	0	-1.2	18	5	21	4.3	-20	-36	-3.7
CC(C)N(CCCNC(=O)c1nn(C)c2c1CS(=O)(=O)c1ccccc1-2)Cc1ccccc1
→ -1	2	0.8	0	-2	5	6.1	8	14	-0.5
O=C(CC1NCCNC1=O)OCCCc1ccccc1 (stereo unspecified)
→ -3	-5	0.2	0	-7	1	0.5	5	-1	1.7
CCNc1nc(NCC)n2c(SCC(=O)Nc3ccc(CC)cc3)nnc2n1
→ /	6	0.4	99*	1	2	2.8	/	/	/
CCCCC(=O)Nc1ccc(NC(=O)c2ccc([N+](=O)[O-])cc2Cl)cc1OC
→ 6	14	0.5	/	11	0	0.8	/	/	/

More records follow:
Value order: Beta apoptosis	T cruzi inh	Bfl-1 A1 inh	ALR H2O2 inh	Calb FLC	B2AR ag	LANA-H2B inh	rRNA inh HTS	rRNA inh HTS OD600	rRNA inh HTS RFP
c1ccc2[nH]c(-c3cnco3)cc2c1
→ -1	-16	0.6	-10	-4	0	0.7	16	12	5.4
O=C1CCC(=O)c2oc3ccccc3c2N1
→ 1	-7	0.4	-3	/	-7	3.6	/	/	/
COc1ccc(N(CC(O)Cn2c(C)nc3ccccc32)S(=O)(=O)c2ccc(C)cc2)cc1 (stereo unspecified)
→ -11	-1	1.7	/	-1	-9	1.2	/	/	/
O=C(NCCC1=CCCCC1)C(=O)NCC(c1ccco1)N1CCN(c2ccc(F)cc2)CC1 (stereo unspecified)
→ -2	-17	0.1	-3	0	4	1.3	/	/	/
Cc1ccc(C)n1CCN1CCN(C(=O)CSc2nc3ccccc3nc2N2CCOCC2)CC1
→ -2	6	-0.6	-4	-7	4	4.6	/	/	/
CCOc1ccc(CN(C)C(=O)CCN2C(=O)c3ccccc3C2=O)cc1OC
→ -1	-5	0.3	1	-5	-8	0.6	4	3	-1.5
COc1cc(CCC(=O)OCC(=O)Nc2nc(C)c(Cl)cc2Cl)cc(OC)c1OC
→ 0	-19	-1.1	-1	39	-2	-6.7	/	/	/
CCOC(=O)c1cnc(Cc2ccccc2)[nH]c1=O
→ -5	-13	0.0	-20	-2	-4	2.7	15	14	0.7
CC1=C(C(=O)Nc2ccccc2)C(c2ccncc2)C(C#N)=C(SCC(=O)NC2CC2)N1 (stereo unspecified)
→ -8	0	0.3	-5	1	-4	2.9	/	/	/
COc1ccc(CCNS(=O)(=O)c2ccc(-n3cnnn3)cc2)cc1OC
→ /	-4	-0.1	-5	0	-4	1.8	1	-1	-0.2

4 neighbouring compounds from above, for reference:
Value order: Beta apoptosis	T cruzi inh	Bfl-1 A1 inh	ALR H2O2 inh	Calb FLC	B2AR ag	LANA-H2B inh	rRNA inh HTS	rRNA inh HTS OD600	rRNA inh HTS RFP
COc1cc(CCC(=O)OCC(=O)Nc2nc(C)c(Cl)cc2Cl)cc(OC)c1OC
→ 0	-19	-1.1	-1	39	-2	-6.7	/	/	/
CCOC(=O)c1cnc(Cc2ccccc2)[nH]c1=O
→ -5	-13	0.0	-20	-2	-4	2.7	15	14	0.7
CC1=C(C(=O)Nc2ccccc2)C(c2ccncc2)C(C#N)=C(SCC(=O)NC2CC2)N1 (stereo unspecified)
→ -8	0	0.3	-5	1	-4	2.9	/	/	/
COc1ccc(CCNS(=O)(=O)c2ccc(-n3cnnn3)cc2)cc1OC
→ /	-4	-0.1	-5	0	-4	1.8	1	-1	-0.2

The list continues.
Value order: Beta apoptosis	T cruzi inh	Bfl-1 A1 inh	ALR H2O2 inh	Calb FLC	B2AR ag	LANA-H2B inh	rRNA inh HTS	rRNA inh HTS OD600	rRNA inh HTS RFP
Cc1ccc(C(=O)c2ccc(N3CCN(C)CC3)c([N+](=O)[O-])c2)cc1
→ /	44	0.4	-11	-4	-9	-1.6	/	/	/
CN(C)C(=O)CSc1nc(SCC(=O)N(C)C)n(-c2ccccc2)n1
→ -5	50	0.6	-6	-7	-15	1.4	/	/	/
COc1ccc(Cn2nnnc2C(c2ccc3ncccc3c2)N2CCN(C3CCCCC3)CC2)cc1 (stereo unspecified)
→ -5	12	0.2	-10	-12	-5	-0.3	8	-3	1.7
CCN(CC)c1ccc(NC(=O)C2CCC(CNc3c(N4CCCC4)c(=O)c3=O)CC2)c(C)c1 (stereo unspecified)
→ 4	-3	0.8	99*	3	0	0.3	8	8	5.7
CCN(CC(=O)Nc1c(F)cccc1F)C(=O)c1ccc(S(=O)(=O)N2CCC(C)CC2)cc1
→ 6	/	-0.6	-7	/	-6	-4.7	-3	-9	1.2
CCc1ccc(/C=C2/SC(=S)N(CCC(=O)Nc3cccnc3)C2=O)cc1
→ -1	-1	0.9	0	0	29	0.8	14	13	1.3
Cc1cccc(NC(=O)CNC(=O)CCc2nc3sc4c(c3c(=O)[nH]2)CCCC4)c1C
→ -3	3	0.1	3	10	-3	4.3	6	9	0.8
C=CCNC(=O)c1onc(CSc2ccc(F)cc2)c1C(=O)NCCOC
→ 0	-2	0.5	2	-12	1	0.9	5	5	-5.4
CN(C)S(=O)(=O)c1ccc(C(=O)OCC(=O)NCc2ccccc2)cc1
→ -6	-11	0.6	-21	20	-2	3.1	18	12	2.3
O=C(Cn1c(=O)n(Cc2ccco2)c(=O)c2ccccc21)Nc1cccc(Cl)c1
→ /	7	0.9	-7	5	-3	-1.1	-15	-26	-4.1

(further entries)
Value order: Beta apoptosis	T cruzi inh	Bfl-1 A1 inh	ALR H2O2 inh	Calb FLC	B2AR ag	LANA-H2B inh	rRNA inh HTS	rRNA inh HTS OD600	rRNA inh HTS RFP
CCOc1ccc(N2CC(C(=O)NCCC3=CCCCC3)CC2=O)cc1 (stereo unspecified)
→ -5	-7	0.6	-3	-1	-6	0.0	2	2	-2.5
COc1cc(/C=N/N=C2\CC3CCC2(C)C3(C)C)ccc1O (stereo unspecified)
→ 3	-1	1.6	99*	56	5	1.2	/	/	/
COc1ccc(CCN(C)C(=O)c2ccc(S(=O)(=O)Nc3ccccc3F)cc2)cc1OC
→ -1	4	0.2	-8	6	4	4.3	-2	1	0.8
COC(=O)C1=C(C)NC(C)=C(C(=O)OCC2CCCO2)C1c1cccc(Br)c1 (stereo unspecified)
→ -1	30	-0.2	0	-7	-1	-6.7	-37	-58	-2.5
O=C(NN1C(=O)c2ccccc2NC1c1ccco1)c1ccccc1 (stereo unspecified)
→ /	1	0.8	-24	7	15	1.1	15	12	1.6
O=C(Nc1nc(-c2ccccc2)c(-c2ccccc2)s1)c1ccc(S(=O)(=O)N2CCCC2)cc1
→ 6	-4	0.2	-13	-12	7	-2.5	/	/	/
NCCc1nnc(SCC(=O)c2ccc(Cl)cc2)o1
→ -6	-4	0.4	32	-6	-10	-0.4	6	8	-0.3
O=C(c1cccc(S(=O)(=O)N2CCOCC2)c1)N1CCN(C/C=C/c2ccccc2)CC1
→ 6	/	0.9	/	/	9	-1.8	/	/	/
COc1ccc(CNC(=O)Oc2ccccc2)cc1Cl
→ -3	-1	0.1	-1	-6	1	13	/	/	/
CC(=O)NNc1nc(-c2ccc(NC(C)=O)cc2)cs1
→ -3	-12	-0.9	99*	7	-1	2.8	12	12	-3.1
COc1ccccc1-c1nnc(SCC(=O)N2CCC(C)CC2)o1
→ -6	12	0.0	-2	-2	1	2.6	/	/	/
CC(C)CCN(C(=O)CNC(=O)c1ccco1)C(C(=O)NC1CCCCC1)c1ccco1 (stereo unspecified)
→ 0	7	0.2	-2	7	-20	2.2	/	/	/

Compound activity: PubChem, several laboratories
